From PubChem
A488 autofl – A488 region autofluorescence | compound autofluorescence, A488 spectral region, dye equivalency; active compounds read high | max dye equivalency, M | 59,000 tested, 0.1% active; active = above 10 nM dye equivalent; inconclusive = 1 to 10 nM; inactive = 1 nM or less; about half of its hits are not listed in these tables;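 note: highest value over a series up to 38 µM; compound alone in buffer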
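Compound autofluorescence was read in 100 mM Tris pH 8.0 after 15 min at room temperature, ex 480 nm/em 540 nm. Intensities were converted to A488 dye-equivalent concentration using an on-plate six-point A488 standard curve.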
A647 fluor – A647 region autofluorescence; Compound fluorescence, A647 channel (570/671 nm), Tris buffer; max dye-equivalent concentration, M; 59,000 tested, under 10 active; AID 592; active means above 1 µM dye equivalent; inconclusive means 0.1 to 1 µM; inactive means 0.1 µM or less;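 note: values scaled relative to a standard on each plate; highest value over a series up to 38 µM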
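Buffer was dispensed, compounds and Alexa 647 standards were pin-transferred, and plates sat 15 min at room temperature. Intensity at 570/671 nm was then converted to dye-equivalent concentration using the plate's A647 standard curve.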
TSHR agonist – TSH receptor (human) agonism. P16473. HEK293-CNG-TSHR cells (CNG channel as cAMP sensor), membrane potential dye, cAMP. Potency, µM (series often up to 57.1 µM), without a hit: top-dose activation, usual class: activators. 73,000 tested, 0.48% active. AID 926; active = well fitted activation curve of enough size with the parental cells flat; inconclusive = any curve in the parental cells; inactive = parental cells flat and receptor cells flat or falling; note: potency is the fitted concentration of half-maximal effect; % of control where 0% means no effect; weak receptor curves with flat parental cells got no call and are not listed
Target sequence (P16473 whole entry, looked up): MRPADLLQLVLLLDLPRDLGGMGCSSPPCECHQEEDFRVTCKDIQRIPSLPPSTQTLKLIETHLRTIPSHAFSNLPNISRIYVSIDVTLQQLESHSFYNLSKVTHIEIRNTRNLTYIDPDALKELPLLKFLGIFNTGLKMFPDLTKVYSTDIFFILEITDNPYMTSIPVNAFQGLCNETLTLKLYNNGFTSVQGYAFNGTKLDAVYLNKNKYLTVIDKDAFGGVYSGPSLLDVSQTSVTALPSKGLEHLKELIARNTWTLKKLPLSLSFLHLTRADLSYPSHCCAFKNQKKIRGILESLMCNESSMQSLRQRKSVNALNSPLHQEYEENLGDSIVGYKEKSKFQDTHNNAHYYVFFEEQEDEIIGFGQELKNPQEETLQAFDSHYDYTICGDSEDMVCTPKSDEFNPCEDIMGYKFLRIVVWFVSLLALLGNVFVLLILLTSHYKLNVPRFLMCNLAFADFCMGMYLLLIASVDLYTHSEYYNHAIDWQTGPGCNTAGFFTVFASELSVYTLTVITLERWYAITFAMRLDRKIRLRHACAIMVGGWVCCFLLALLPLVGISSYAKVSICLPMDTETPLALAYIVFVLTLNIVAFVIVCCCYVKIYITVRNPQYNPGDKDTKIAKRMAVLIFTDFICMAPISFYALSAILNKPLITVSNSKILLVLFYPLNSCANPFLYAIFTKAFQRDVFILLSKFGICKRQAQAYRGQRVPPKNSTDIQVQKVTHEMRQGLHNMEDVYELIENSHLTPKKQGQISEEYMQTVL
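HEK 293 cells stably expressing TSHR and a modified CNG channel, with CNG-only parental cells as counterscreen, were preloaded 60 min at room temperature with membrane potential dye containing 100 uM RO 20-1724. Compound exposure was 30 min, and depolarization was read as fluorescence at 590 nm.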
AID923 – qHTS Assay for Allosteric/Competitive Inhibitors of Caspase-1: Spectroscopic Profiling in AFC Spectral Region; compound fluorescence, AFC spectral region (405/520 nm); almost no hit is shown here; Potency, µM (doses to about 57.5 µM), inactives show at the highest dose fluorescence increase, actives largely listed as activators; 75,000 tested, 1.1% active; active = well fitted activation curve with a large enough effect; inconclusive = small, poorly fitted or top-dose-only effect;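 note: potency is the fitted concentration of half-maximal effect; 0% is about no effect; scaled to a free AFC standard on each plate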
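Titrations up to 57 uM read every 20 sec for 3 min (405/520 nm) with 50 nM caspase 1 and 5 uM Ac-WEHD-AFC, pH 7.5 HEPES buffer. Fluorescence-vs-time intercept gave baseline, scaled against on-plate AFC standard.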
Resorufin fluor – compounds fluorescent in resorufin spectral region | Compound fluorescence, resorufin region 547/598 nm, buffer; active compounds read high | max dye-equivalent concentration, M | 59,000 tested, 0.04% active; active = above 10 nM dye equivalent; inconclusive = 1 to 10 nM; inactive = 1 nM or less; a few of its hits are not listed in these tables; note: highest value over a series up to 38 µM
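Intrinsic fluorescence profiled in the resorufin window (ex 547 nm, em 598 nm) after 15 min at room temperature in pH 8.0 Tris buffer (100 mM); responses normalized against a six-point resorufin standard series as dye-equivalent concentration.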
* marks the source's active call; other numbers are inactive results; i = inactive; u = inconclusive; x = not tested or not shown; & = joins results of further samples; [ ] = remark or other dose.

A first look (4 entries):
molecule	A647 fluor	AID923	TSHR agonist	Resorufin fluor	A488 autofl
CC1(C)Cc2c(sc3ncnc(N)c23)CO1	2.86e-08	0.0%	-18.3%	i	i
O=C(NCCCN1CCN(c2cccc(Cl)c2)CC1)c1ccc(N2CCCC2=O)cc1	1e-09	0.0%	20.1%	i	i
Cc1cc(C)n(-c2ccc(C(=O)OCC(=O)c3ccc(Br)s3)cc2)n1	1.6e-09	-1.1%	4.7%	i	i
CC[C@]1(O)C[C@@H]2CN(CCc3c([nH]c4ccccc34)[C@](C(=O)OC)(c3cc4c(cc3OC)N(C=O)[C@H]3[C@@](O)(C(=O)OC)[C@H](C(=O)OC)[C@@]5(CC)C=CCN6CC[C@]43[C@H]65)C2)C1	x	-2.5%	1.6%	x	x

The listing, from the start:
molecule	A647 fluor	AID923	TSHR agonist	Resorufin fluor	A488 autofl
CC1(C)Cc2c(sc3ncnc(N)c23)CO1	2.86e-08	0.0%	-18.3%	i	i
O=C(NCCCN1CCN(c2cccc(Cl)c2)CC1)c1ccc(N2CCCC2=O)cc1	1e-09	0.0%	20.1%	i	i
Cc1cc(C)n(-c2ccc(C(=O)OCC(=O)c3ccc(Br)s3)cc2)n1	1.6e-09	-1.1%	4.7%	i	i
CC[C@]1(O)C[C@@H]2CN(CCc3c([nH]c4ccccc34)[C@](C(=O)OC)(c3cc4c(cc3OC)N(C=O)[C@H]3[C@@](O)(C(=O)OC)[C@H](C(=O)OC)[C@@]5(CC)C=CCN6CC[C@]43[C@H]65)C2)C1	x	-2.5%	1.6%	x	x
COc1ccc(O)c(C(=O)CC(=O)c2ccccc2)c1	x	2.4%	11.5%	x	x
N#Cc1nc(Cc2cccc3ccccc23)oc1NCc1ccco1	6.7e-09	-1.6%	11.7%	i	i
Cc1cc2cc(CNC(=O)CCC(=O)O)ccc2[nH]1	1.44e-08	3.0%	4.5%	i	i
CN(C)CC(=O)Nc1cc(C(F)(F)F)ccc1Cl	1e-09	5.3%	3.0%	i	i
Cc1ccc(S(=O)(=O)N2CCC(C(=O)N3CCC[C@H]3C(=O)NC3CCS(=O)(=O)C3)CC2)cc1 (stereo partly drawn)	4.9e-09	-1.0%	1.4%	i	i
CCOC(=O)c1cnc2cc3c(cn2c1=O)CCCC3	1e-09	9.5%	-2.2%	i	i
O=C(NCSC1=NCCS1)c1ccccc1	3.57e-08	-0.3%	1.1%	i	i
Cc1nc(-n2nnc3ccccc32)c2c3c(sc2n1)CCCC3	3.59e-08	-0.2%	u	i	i
Cc1nc(N)c(C#N)c(-c2ccccc2)c1C	1.13e-08	-0.2%	3.7%	i	i
COc1ccc(Nc2ccc3c(c2)=NC2(CCCCC2)[N+]=3[O-])cc1	x	0.6%	u	x	x
CCCC1(C(=O)OCC)NC(c2cc(OC)c(OC)c(OC)c2)C2C(=O)N(CC)C(=O)C21 (stereo not drawn)	3.73e-08	2.1%	2.3%	i	i
CC(C)(C)C(=O)Nc1ccc(-c2cn3ccsc3n2)cc1	3.1e-09	0.2%	u	i	i
O=c1[nH]c(=O)n(Cc2ccco2)c2c1C(C(F)(F)F)(C(F)(F)F)N=C(C1CCCCC1)N2	4.04e-08	-2.6%	14.5%	i	i
CCCn1c(SCc2cc(=O)[nH]c3ccccc23)nc2c1c(=O)n(C)c(=O)n2C	2.06e-08	0.2%	13.7%	i	i
CCc1c2c(nc3ccccc13)OC(C)C2 (stereo not drawn)	x	-0.4%	25.4%	x	x
Cc1n[nH]c(=O)nc1NCc1ccccc1	x	-0.9%	9.1%	x	x
CCCC(=O)Nc1cc(-c2nn(C)c(=O)c3ccccc23)ccc1OC	9.1e-09	-2.1%	7.2%	i	i
CC1CC(C)CN(Cc2nc3c(c(=O)n(C)c(=O)n3C)n2Cc2ccccc2Cl)C1 (stereo not drawn)	x	-2.1%	-2.9%	x	x
Cn1cc(-c2nc3cnc(N4CCOCC4)nc3n(CCC#N)c2=O)c2ccccc21	2.88e-08	18.0%	0.7%	i	i
CCOc1ccc(-n2c(C)nc3cc(C(=O)NCCCN4CCOCC4)ccc32)cc1	1.9e-08	-1.6%	u	i	i
Cc1cc(O)cc(=O)n1Cc1ccco1	1e-09	0.5%	8.2%	i	i
CC(C)(C)OC(=O)NCCCCCc1nnc(SCC(N)=O)o1	1e-09	0.5%	-4.3%	i	i
Cc1nc(C)c(C(=O)NCc2ccc(Cl)cc2)o1	3.09e-08	3.2%	u	i	i
COCC(=O)Nc1c(C(=O)Nc2cccc(OC)c2)oc2ccccc12	2.95e-08	1.4%	u	i	i
COc1ccc(CCn2c(-n3nc(C)cc3C)nc3c2c(=O)[nH]c(=O)n3C)cc1	2.65e-08	0.8%	8.4%	i	i
CCn1c(=O)cc(SCC(=O)NCCCN2CCN(c3ccccc3F)CC2)c2ccccc21	7.2e-09	-0.9%	x	i	i
Cc1cc(=O)n2c(n1)OC(CO)C2 (stereo not drawn)	1e-09	-1.4%	1.1%	i	i
COC(=O)c1ccc(NC(=O)c2ccc(CN3CCOCC3)cc2)cc1	1.1e-09	-0.1%	14.7%	i	i
CO[C@@H]1COC(=O)C/C=C\[C@@H](C)[C@H](OC)COC(=O)C/C=C\[C@H]1C	x	0.3%[11.5 µM]	-2.0%[11.4 µM]	x	x
CN(C)Cc1cn(CCC(=O)O)c2ccccc12	5.83e-08	-2.2%	-7.9%	i	i
O=S(=O)(NC1CCCC1)c1ccc(S(=O)(=O)N2CCc3ccccc32)cc1	2.57e-08	2.5%	x	i	i
CC(=O)Nc1ccc(Oc2cc(C#N)c(C#N)cc2N2CCCCCC2)cc1	1e-09	16.4%	13.3%	i	i
O=C(O)c1c(Br)c(Br)c(Br)c(Br)c1C1c2ccc(O)cc2Oc2cc(O)ccc21	1e-09	1.8%[11.5 µM]	-4.2%[11.4 µM]	u	1.53e-08M*
CCOC(=O)C1CCN(C(=O)c2cccc(NC(=O)C(CC)CC)c2)CC1	8.5e-09	-0.6%	10.0%	i	i
CC1CCN(Cc2nc3c(c(=O)n(C)c(=O)n3C)n2CCCc2ccccc2)CC1	4.3e-08	3.5%	u	i	i
CCOc1ccccc1C(=O)N1CCCCC1C (stereo not drawn)	2.6e-09	-1.8%	u	i	i
CCN(c1ccc(OC)cc1)S(=O)(=O)c1ccc2c(c1)CCN2C(=O)CCC(=O)O	3.73e-08	-0.5%	2.8%	i	i
CCCc1nc(SCC(=O)N2CCc3ccccc32)c2c(=O)n(C)c(=O)n(C)c2n1	x	0.0%	2.9%	x	x
Cc1ccc(-c2ccc(=O)n(CC(=O)NCCCN3CCCCC3C)n2)cc1 (stereo not drawn)	2.16e-08	-0.4%	0.2%	i	i
COc1ccccc1NC(=O)Cc1csc(N)n1	3.7e-09	-0.7%	-2.9%	i	i
CCC1CC(C)(C(=O)Nc2ccc(S(N)(=O)=O)cc2)OC1=O (stereo not drawn)	x	5.4%	2.9%	x	x
Cc1ccc(C)c(/C(O)=C2/C(=O)C(=O)N(CCN3CCOCC3)C2c2ccc(C)o2)c1 (stereo not drawn)	2.63e-08	2.6%	9.0%	i	i
COC(=O)C1CCN(C(=O)C23CCC(C)(C(=O)O2)C3(C)C)CC1 (stereo not drawn)	2.9e-09	-1.0%	12.4%	i	i
CCOC(=O)C1CCCN(S(=O)(=O)c2c(C)c(C)cc(C)c2C)C1 (stereo not drawn)	1.02e-08	-0.1%	u	i	i
CCOC(=O)C(C(=O)OCC)[C@@H]1CS(=O)(=O)C[C@H]1C(C(=O)OCC)C(=O)OCC	1.64e-08	2.1%	9.0%	i	i
COc1cc(C2C(C(=O)c3ccc(C)o3)=C(O)C(=O)N2c2cc(C)on2)ccc1O (stereo not drawn)	3.32e-08	-0.7%	9.8%	i	i
CC1CCCCN1CCCNC(=O)c1ccc(Cc2nc3ccccc3[nH]2)cc1 (stereo not drawn)	x	0.4%	-4.3%	x	x
O=C(NCc1ccccc1)N(Cc1cc2cc3c(cc2[nH]c1=O)OCO3)CC1CCCO1 (stereo not drawn)	4.9e-09	2.5%	4.3%	i	i
CCOc1ccccc1NC(=O)CSc1nnc(-c2cnccn2)n1CC	1.38e-08	-0.6%	21.5%	i	i
CC(=O)c1cc2c(cc1NC(=O)CN1CCN(c3cccc(C(F)(F)F)c3)CC1)OCO2	2.39e-08	1.6%	u	i	i
CCOC(=O)C1=C(O)/C(=C/N(C)C)N=C1C	x	-0.8%	2.6%	x	x
O=C1CC(c2ccccc2)C(C(=O)O)N1 (stereo not drawn)	x	-0.5%	0.2%	x	x
CCOC(=O)c1c(C)nc2ccccn12	5.4e-09	-0.6%	5.2%	i	i
C=CCN1C(=O)/C(=C2/Sc3ccccc3N2C)SC1=Nc1c(C)n[nH]c1C	6.2e-09	3.3%	6.9%	i	i
CCCc1cc(C(N)=O)c(NC(=O)c2cc(C)on2)s1	1e-09	-0.2%	-3.2%	i	i
COc1ccc2[nH]c(=O)c(CN(C(=O)c3ccccn3)c3ccccc3)cc2c1	1.5e-09	-1.3%	-3.7%	i	i

(further entries)
molecule	A647 fluor	AID923	TSHR agonist	Resorufin fluor	A488 autofl
CCCCOc1ccc(C(=O)CCN2CCCCC2)cc1	1.05e-08&1e-09	-1.3%	13.3%[25.6 µM]	i	i
Nc1c(Br)cc2oc(-c3ccccc3)nc2c1Br	3.7e-09	x	x	i	i
C#C[C@H](N)CCC(=O)O	4.05e-08	0.1%	1.2%	i	i
COC(=O)Cn1c(=NC(=O)CSCC(=O)NC2CCCCC2)sc2cc(OC)ccc21	2.81e-08	0.8%	u	i	i
O=C(c1ccccc1)N1CCN(C2CC(=O)N(CCc3ccccc3)C2=O)CC1 (stereo not drawn)	x	0.8%	-0.3%	x	x
N#C/C(=C\c1ccc(O)c(O)c1)C(=O)OCCc1cccs1	x	-1.8%	-3.8%	x	x
Cc1cc(C)nc(SCCc2cccc[n+]2C)n1	1e-09	-0.4%[11.5 µM]	-2.0%[11.4 µM]	i	i
CC(C)c1[nH]nc2c1C(c1cccc(OC(=O)N3CCOCC3)c1)C(C#N)=C(N)O2 (stereo not drawn)	2.35e-08	0.8%	4.6%[11.4 µM]	u	i
CCOC(=O)c1oc2ccccc2c1NC(=O)COC	2.1e-08	-0.1%	5.8%	i	i
CN(C)CCCN1c2ccccc2Sc2cnccc21	1e-09	-0.1%[11.5 µM]	-1.6%[11.4 µM]	i	i
Cc1cccc2cc(C(c3nnnn3C3CCCC3)N3CCOCC3)c(=O)[nH]c12 (stereo not drawn)	3.34e-08	5.4%	-0.6%	i	i
CN1CCC2(CC1)CCN(C(=O)c1ccncc1)CC2	1e-09	2.4%	-1.6%	i	i
O=C(CSc1nnc(C2COc3ccccc3O2)o1)N1CCCCC1 (stereo not drawn)	x	3.2%	8.3%	x	x
c1ccc(-c2cc(N3CCOCC3)nc(-c3ccccc3)n2)cc1	1.2e-08	1.0%	x	i	i
Cc1cccc(-n2c(SCC(=O)Nc3nonc3C)nnc2-c2ccoc2C)c1	4.1e-08	0.4%	u	i	i
CC(=O)c1cc(CN2CCCCC2)cc(OC(C)C)c1	3.78e-08	x	x	i	i

Four compounds from above, reduced to A647 fluor, AID923 and TSHR agonist.
mol | A647 fluor | AID923 | TSHR agonist
COc1ccc2[nH]c(=O)c(CN(C(=O)c3ccccn3)c3ccccc3)cc2c1 | 1.5e-09 | -1.3% | -3.7%
CCCCOc1ccc(C(=O)CCN2CCCCC2)cc1 | 1.05e-08&1e-09 | -1.3% | 13.3%[25.6 µM]
Nc1c(Br)cc2oc(-c3ccccc3)nc2c1Br | 3.7e-09 | x | x
C#C[C@H](N)CCC(=O)O | 4.05e-08 | 0.1% | 1.2%

An excerpt; count on the stated rates, not on these rows.
